Bioassay records: PubChem BioAssay, The Scripps Research Institute Molecular Screening Center
OX1R antag: human HCRTR1 antagonism; O43613; actives 0.43% (n = 330,000); inhibition, % at 5 µM; AID 434989; CHO/OX1R cells, Fluo-8 calcium fluorescence, orexin A;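 active = inhibition above its plate's threshold, mean inhibition of all tested compounds on the plate plus 3 SD, cut at about 37% in these data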;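 also: 0% = orexin A challenge wells and 100% = SB-334867-A antagonist wells; not every result past the cut was called active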
Target sequence (O43613 whole entry, looked up): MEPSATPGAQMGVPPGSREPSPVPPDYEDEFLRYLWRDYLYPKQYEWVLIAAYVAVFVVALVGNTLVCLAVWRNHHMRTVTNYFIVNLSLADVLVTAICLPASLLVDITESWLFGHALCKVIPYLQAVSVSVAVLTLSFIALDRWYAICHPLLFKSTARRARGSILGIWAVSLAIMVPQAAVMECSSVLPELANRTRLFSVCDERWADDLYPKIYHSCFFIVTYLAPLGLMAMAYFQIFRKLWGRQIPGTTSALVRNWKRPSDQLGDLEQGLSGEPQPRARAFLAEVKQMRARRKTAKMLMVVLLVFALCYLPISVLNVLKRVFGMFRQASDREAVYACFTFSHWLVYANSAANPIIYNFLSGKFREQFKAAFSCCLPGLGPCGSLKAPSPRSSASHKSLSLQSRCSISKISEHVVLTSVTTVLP
* = called active by the depositor.

OX1R antag	SMILES
-18	CCn1c(SCC(=O)Nc2nccs2)nnc1-c1ccc(S(=O)(=O)N2CCCCC2)cc1
-32	Cc1ccccc1NC(=O)CN1CCC(C(=O)c2ccc3c(c2)OCCO3)CC1
-8	O=c1[nH]c2ccccc2n1C1=CCCC1
-13	O=C(CN(c1ccc(F)cc1)S(=O)(=O)c1ccc2c(c1)OCCO2)N1CCOCC1
-7	Cc1ccccc1NC(=O)Cn1c(=O)n(-c2ccc(CC(=O)NCC3CCCO3)cc2)c(=O)c2ccccc21 (centres undefined)
15	O=C1N[C@@H](Cc2ccccc2)C(=O)N2CCCC12 (some centres undefined)
0	CN(CC1CCCO1)S(=O)(=O)c1ccc(C(=O)Nc2ccc3c(c2)OCO3)cc1 (centres undefined)
-29	COc1ccccc1NC(=O)Cn1c2ccccc2c2nc3n(c(=O)c21)CCS3
-7	N#CC1=C(N)Oc2cc(O)ccc2C1C1CCCCC1 (centres undefined)
-5	COc1ccc(CNC(=O)CCCC2=NS(=O)(=O)c3ccccc3N2)cc1
-26	O=C(OCC1CC(c2ccccc2Cl)=NO1)c1ccc(Br)cc1 (centres undefined)
-27	Clc1ccc(OCCSc2ncccn2)c2ccccc12
7	COc1ccccc1NC(=O)c1c([N+](=O)[O-])cnn1C
-7	CC(=O)c1ccc(NC(=O)Cn2cnc(S(=O)(=O)N3CCCCC3)c2)cc1
6	Cc1c(Cl)cccc1NC(=O)NCc1ccc(F)cc1
-30	O=C(c1ccc(Br)cc1)C1CCc2occc2C1=O (centres undefined)
-19	CC(NC(=O)C(=O)NCCC1=CCCCC1)c1ccccc1 (centres undefined)
-19	COc1ccc(NC(=O)C2CC(=O)N(Cc3ccc(C)cc3)C2)cc1S(=O)(=O)N1CCCCC1 (centres undefined)
0	COc1cc(Br)cc(CNc2ccc(F)c([N+](=O)[O-])c2)c1O
-14	O=C(CC1COc2ccccc2O1)NC1CCCCC1 (centres undefined)
-13	CCN(CC)CCCNC(=O)c1ccc(CS(=O)(=O)c2ccccc2OC)o1
-26	O=C(Nc1ccccc1N1CCN(C(=O)c2ccc(Cl)cc2)CC1)c1cccnc1
-4	c1ccc(-c2ccc(SCc3cccnc3)nn2)nc1
-20	Cc1cc(C(=O)OCC(=O)Nc2ccccc2[N+](=O)[O-])c2ccccc2n1
-17	COc1ccc(N(CC(=O)N/N=C/c2ccco2)S(=O)(=O)c2ccccc2)cc1

An excerpt from above in order of number of heavy atoms, smallest number first.
OX1R antag	SMILES
-8	O=c1[nH]c2ccccc2n1C1=CCCC1
15	O=C1N[C@@H](Cc2ccccc2)C(=O)N2CCCC12 (some centres undefined)
-30	O=C(c1ccc(Br)cc1)C1CCc2occc2C1=O (centres undefined)
-4	c1ccc(-c2ccc(SCc3cccnc3)nn2)nc1
-27	Clc1ccc(OCCSc2ncccn2)c2ccccc12
0	COc1cc(Br)cc(CNc2ccc(F)c([N+](=O)[O-])c2)c1O
-26	O=C(OCC1CC(c2ccccc2Cl)=NO1)c1ccc(Br)cc1 (centres undefined)
-5	COc1ccc(CNC(=O)CCCC2=NS(=O)(=O)c3ccccc3N2)cc1
-13	CCN(CC)CCCNC(=O)c1ccc(CS(=O)(=O)c2ccccc2OC)o1
-32	Cc1ccccc1NC(=O)CN1CCC(C(=O)c2ccc3c(c2)OCCO3)CC1
-26	O=C(Nc1ccccc1N1CCN(C(=O)c2ccc(Cl)cc2)CC1)c1cccnc1
-18	CCn1c(SCC(=O)Nc2nccs2)nnc1-c1ccc(S(=O)(=O)N2CCCCC2)cc1
-19	COc1ccc(NC(=O)C2CC(=O)N(Cc3ccc(C)cc3)C2)cc1S(=O)(=O)N1CCCCC1 (centres undefined)
-7	Cc1ccccc1NC(=O)Cn1c(=O)n(-c2ccc(CC(=O)NCC3CCCO3)cc2)c(=O)c2ccccc21 (centres undefined)

Three structures out of the list, ordered by length of the SMILES, largest number first.
OX1R antag	SMILES
0	CN(CC1CCCO1)S(=O)(=O)c1ccc(C(=O)Nc2ccc3c(c2)OCO3)cc1 (centres undefined)
15	O=C1N[C@@H](Cc2ccccc2)C(=O)N2CCCC12 (some centres undefined)
-30	O=C(c1ccc(Br)cc1)C1CCc2occc2C1=O (centres undefined)

Further records:
OX1R antag	SMILES
1	COC(=O)CNC(=O)c1ccc(C)s1
-38	CC(Nc1cccc2ccccc12)C(=O)N/N=C/c1ccc([N+](=O)[O-])cc1 (centres undefined)
-13	O=C(c1cc(=O)c2ccccc2o1)N1CCCc2ccccc21
-11	COc1cccc(/C=C2/NC(=O)N(CC(=O)Nc3ccc(C)cc3)C2=O)c1OCc1cccc(C(=O)O)c1
11	CC1=C(C)CC(C(=O)Nc2nccs2)C(C(=O)O)C1 (centres undefined)
-14	Cc1nc(NC(=O)C2CC2)sc1C(=O)Nc1ccc(Br)cc1
-7	CC(=O)Nc1ccc(Nc2nc3c(S(=O)(=O)c4ccc(C)c(C)c4)nnn3c3ccccc23)cc1
-22	Cc1nc(C)c(-c2ccc(SCC(=O)Nc3ccc(F)cc3F)nn2)s1
-36	Cc1ccc(NC(=O)c2cc(-c3ccc(C)o3)nc3ccccc23)nc1
-14	Cc1onc(-c2ccccc2)c1C(=O)N1CCN(S(=O)(=O)c2ccc3c(c2)OCCO3)CC1
-5	CCOC(=O)C1=C(C)N=C2SCCC(=O)N2C1c1sccc1C (centres undefined)
-16	CCOC(=O)C1=C(C)N=c2s/c(=C\c3cccc(OCC(=O)O)c3)c(=O)n2C1c1ccccc1OC (centres undefined)
4	COc1ccc(-n2c(COc3ccccc3)nnc2SCc2ccc(C#N)cc2)cc1
2	Cc1ccc(N(C(=O)c2cc3ccccc3oc2=O)C2C=CS(=O)(=O)C2)cc1 (centres undefined)
9	CCCCCCCCCCCCCCCC(=O)OC(CC(=O)O)C[N+](C)(C)C (centres undefined)
-5	CSc1c(C#N)c(N)c(C#N)c2c1COC(C)(C)C2
-30	CCN(c1cccc(C)c1)S(=O)(=O)c1ccc2c(c1)CCN2C(C)=O
-17	Cc1ccc(S(=O)(=O)NCCCCCC(=O)Nc2ccccc2)cc1
-25	CCOC(=O)C(CC(=O)Nc1nc(C(C)=O)c(C)s1)C(C)c1ccccc1 (centres undefined)
-20	NC(=O)c1cc(S(=O)(=O)NCc2ccc(Br)cc2)cs1
2	CCOC(=O)c1sc(NC(=O)c2cc(-c3cccc(O)c3)on2)c(C(=O)OCC)c1C
-17	Nc1c(N(CCC2=CCCCC2)C(=O)Cc2ccc(F)cc2)c(=O)[nH]c(=O)n1Cc1ccccc1
5	NC(=O)CC(NC(=O)c1cccc(Br)c1)c1ccc(NC2CCCCCCCCCCC2)c([N+](=O)[O-])c1 (centres undefined)
-18	Cc1cc2nccc(-c3ccco3)n2n1
-11	CC(=O)N1CCN(S(=O)(=O)c2ccc(C)c([N+](=O)[O-])c2)C1C(C)C (centres undefined)
-17	CCOC(=O)N1CCN(CC(=O)Nc2ccc(C)c(Br)c2)CC1
8	CC1CCCCN1Cc1ccc(N(C)C)cc1 (centres undefined)
-38	Cc1nn(-c2ccccc2)nc1CNC(=O)C(C)Cc1ccccc1 (centres undefined)
-8	Cc1cc(C(=O)CSc2nc3ccccc3n2C)c(C)n1C
-20	Cc1ccc(-c2nnn(CC(=O)NCC3CC3)n2)o1
-7	COCCC(=O)N1CCC(Oc2ccc(C(=O)N3CCC(N(C)C)C3)cc2)CC1 (centres undefined)
-16	CS(=O)(=O)N1CCc2cc(C(=O)NC3CC3)ccc21
-17	CN(C)c1cccc(C(=O)OC(C(=O)Nc2ccc(Cl)cc2C(F)(F)F)c2ccccc2)c1 (centres undefined)
3	O=C(CCCc1ccccc1)NCCCN1CCOCC1
-33	CCOc1ccccc1N(C(=O)c1snc(C(N)=O)c1N)C(CC)C(=O)NC1CCCC1 (centres undefined)
-17	CCC1CCCCN1C(=O)CSC1=NN2CCCC(=O)N=C2S1 (centres undefined)
1	CCC(OCC(O)CN1CCCCC1)c1ccccc1 (centres undefined)
-6	CN1CCN(C(=O)C2CCC(=O)N(Cc3cccc(C(F)(F)F)c3)C2)CC1 (centres undefined)
-3	COc1ccccc1C(=O)Nc1ccccn1
-25	CC1=NN(/C(=N\c2nnc(C)s2)Nc2ccccc2)[C@H](c2ccc(C)cc2)S1
-17	COCCNC(=O)c1onc(CSc2ccc(C(C)C)cc2)c1C(=O)O
-14	O=C(Nc1cccc(NC(=O)C2C3CC4OC(=O)C2C4C3)c1)c1ccccc1 (centres undefined)
-37	CCC(C)(C(=O)NC1CCCCC1)N(C)C(=O)c1ccc2c(c1)OCO2 (centres undefined)
-10	COCCn1cc(C(=O)N2CCCC(C)C2)c2c3ccccc3n(C)c2c1=O (centres undefined)
-15	Cc1cccc(NS(=O)(=O)c2cccc(C(=O)NCCCN3CCCC3=O)c2)c1
-25	CCc1ccc2[nH]c(=O)c(CN(CCN(CC)CC)C(=S)NCc3ccco3)cc2c1
6	O=C(O)COc1ccccc1/C=N/NC(=O)COc1ccc(-c2ccccc2)cc1
-8	COC(=O)CN(c1ccc(Cl)cc1C)S(C)(=O)=O
-21	CCCCC1NC(=S)N(C2CCCCC2)C1=O (centres undefined)
-12	O=[N+]([O-])c1ccc(Cl)c(S(=O)(=O)Nc2ccc(-c3ccc(N4CCOCC4)nn3)cc2)c1

Following part:
OX1R antag	SMILES
2	O=C(O)c1cc(C(=O)C2CCCCC2)c[nH]1
-1	CC(=O)c1cccc(NC(=O)COC(=O)c2cccs2)c1
-10	O=C(Cc1ccccc1)NCCSCc1ccc(Cl)cc1
-28	Cc1ccc(NC(=O)CSc2ccc(-c3ccco3)nn2)c(C)c1
0	N#Cc1c(N)n(CCNC(=O)c2ccc(Cl)cc2)c2nc3ccccc3nc12
-4	Cc1nn(C)c(C)c1NC(=O)/C(C#N)=C\N(C)C
-12	CC(Cc1ccsc1)NC(=O)CCc1nnc(CCc2ccccc2)o1 (centres undefined)
-19	Cc1ccc(CNC(=O)CSCc2ccc(F)cc2)cc1
-39	CCOC(=O)Cc1c(C)c2ccc(N(CC)CC)cc2oc1=O
-18	CCOc1ccc(N(C)S(=O)(=O)c2ccc(C)c(C(=O)OCC(=O)c3c[nH]c4ccccc34)c2)cc1
-27	CC[C@@]12C(=O)N(c3cccc(F)c3)C(=O)N1[C@H](c1ccc(F)cc1)[C@@H]1C(=O)N(C3CCCCC3)C(=O)[C@@H]12
0	Cc1ccc(CN2CCSCC2)cc1
-29	CCCc1ccc(OCc2ccc(C(=O)N3CCSCC3)o2)cc1
-32	O=C(c1ccco1)N1N=C(c2cccs2)CC1c1ccc(F)cc1 (centres undefined)
-3	CCN1CCN(S(=O)(=O)c2ccc3[nH]c(=O)oc3c2)CC1
-34	Cc1ccc(-c2csc(NC(=O)C3CSC4(C)CCC(=O)N34)n2)cc1 (centres undefined)
-6	CCc1ccc2[nH]c3nc(N/N=C/c4cccc(O)c4)nnc3c2c1
-12	Cc1ccc(-n2c(=S)sc3c(=O)n(-c4ccccc4F)c(SCC(=O)O)nc32)cc1C
7	Cc1ccc(-n2c(O)cnc2Nc2nc(C)cc(C)n2)cc1
-17	CC1=C(C#N)C(c2ccoc2)C(C(=O)OCc2ccccc2)=C(N)S1 (centres undefined)
0	CC(C)OC(=O)CSc1nnc(-c2ccccn2)n1C
-27	COc1ccc(CNC(=O)c2cc(COc3c(F)cccc3F)on2)cc1OC
-22	CN1CCN(Cc2nc(Cc3ccccc3)no2)CC1c1ccccc1 (centres undefined)
-20	C/C(=N\NC(=O)c1c(C)nc2ccccn12)c1ccccc1F
-2	Cc1cc(C)n(C(=O)CNC(=O)c2ccccc2F)n1
-26	O=C(Nc1ccnn1C1CCN(Cc2cccc(OCCO)c2)CC1)c1cccc(F)c1
-2	COc1ccc(/C(N)=N/OC(=O)Cc2ccccc2OC)cc1
-35	Cc1c(C(=O)OC(C)CCN(C)C)oc2ccccc12 (centres undefined)
-8	COC(=O)COc1ccc(S(=O)(=O)Nc2ccc(C(N)=O)cc2)cc1Cl
-16	Cc1ccc(S(=O)(=O)NC(=O)c2cc(C)n(-c3cc(S(=O)(=O)N4CCOCC4)ccc3N3CCCC3)c2C)cc1
-8	O=C(Nc1ccc(OC(F)(F)F)cc1)c1cnccn1
4	Cc1nc2cc(-c3ccccc3)sc2c(=O)n1N
-22	Cc1ccc(-c2noc(CSc3nnc(-c4cccs4)n3C)n2)cc1
-13	CCCCn1c(N)c(N(CCOC)C(=O)c2cc(CC)c(C)s2)c(=O)[nH]c1=O
-5	COc1ccc(/C=N/n2c(C3CCCCC3)n[nH]c2=S)c(OC)c1
-22	Cc1cccc(Nc2nc(-c3ccc4c(c3)OCCO4)cs2)c1
-17	C=CCSc1nnc2c(n1)OC=Nc1ccc(Br)cc1-2
-18	CNC(=S)N/N=C/c1ccc(N2CCOCC2)s1
-11	Cc1cc(OC(C)C(N)=O)nc(-c2ccccc2)n1 (centres undefined)
4	Cn1c(CNC(=O)CNC(=O)c2cccc(F)c2)cc(=O)n(C)c1=O
-8	CC(C)CC(=O)OCC(=O)Nc1ccccc1Sc1ccccc1
-29	Cc1ccc(C)c(N2CCN(C(=O)CCC(=O)Nc3nnc(CC(C)C)s3)CC2)c1
-20	CCn1c(SCc2ccc(F)cc2)nc2c(c1=O)SCC2
-26	COc1ccc(/C=N/NS(=O)(=O)c2ccc(F)cc2)cc1CN1CCSCC1
-4	Clc1ccc(Cn2cc(/C=N/n3cnnc3)c3ccccc32)cc1
-21	O=C(NC1CCCCCC1)c1nnc(Cc2ccc(Cl)cc2)o1
-1	COc1ccc(CNS(=O)(=O)c2ccc(C)cc2)cc1
-11	O=c1cc(-c2ccccc2)nc2nc(-c3ccco3)[nH]n12
-14	Cc1ccc(C)c2[nH]c(=O)c(CCNC(=O)c3ccc(Br)o3)cc12
-8	O=C(C/C=N\O)Nc1ccc(Oc2ccccc2)cc1
-23	COc1ccc2c(c1)CCCC21NC(=O)N(CC(=O)NC(=O)NCc2ccccc2)C1=O (centres undefined)
-9	O=C(CSc1ccc2nnc(-c3ccccn3)n2n1)Nc1nccs1
-4	O/C(=C\Sc1nnc(Cc2ccccc2)o1)c1ccc(F)cc1

Only part of the results is shown; most or all hits stand in other tables.
